Screening results deposited in PubChem by Broad Institute.
Yeast UUG start – alters start codon recognition fidelity in yeast. S. cerevisiae UUG-firefly luciferase reporter, luminescence/redox ratio. activity score, % at 18.7 µM. 350,000 compounds, 0.13% hits;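 active = replicate mean at a twofold rise or more, about +100% in these data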;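 note: firefly luciferase made from a UUG start codon reports start codon fidelity; reporter light over untreated wells divided by growth signal over untreated wells; some hits fall short of that in this replicate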
Starred values were filed as active, the others as inactive.

structure	Yeast UUG start
COC(=O)[C@@H]1[C@@H](CO)[C@@H]2Cn3c(ccc(C4=CCCC4)c3=O)[C@@H]2N1C(=O)C1CCC1	13
CC(C)C#Cc1ccc([C@@H]2[C@H](CO)N3CCCCN(C(=O)Nc4ccccc4)C[C@@H]23)cc1	16
C[C@@H]1CN([C@H](C)CO)C(=O)c2cccc(NC(=O)c3ccncc3)c2O[C@H]1CN(C)S(=O)(=O)c1ccc(F)cc1	-7
Cn1cnc(S(=O)(=O)N2CCCCN3[C@H](C2)[C@@H](c2ccc(-c4cccc(F)c4)cc2)[C@@H]3CO)c1	-6
CCC(=O)N1[C@H](CO)[C@@H]2c3ccccc3N(C(=O)Nc3cccc(Cl)c3)C[C@@H]21	-7
C[C@H]1CN([C@@H](C)CO)C(=O)Cc2cc(NC(=O)CCC(F)(F)F)ccc2O[C@@H]1CN(C)Cc1ccc(C(F)(F)F)cc1	-10
C[C@H]1CN([C@@H](C)CO)C(=O)c2cccc(NS(=O)(=O)c3ccccc3)c2O[C@H]1CN(C)S(C)(=O)=O	1
O=C(CC(F)(F)F)N1C[C@@H]2[C@H](c3ccccc31)[C@H](CO)N2C(=O)c1ccncc1	17
COc1cccc(S(=O)(=O)N2C[C@@H](O)COC[C@@H]3O[C@H](CC(=O)N4CCOCC4)CC[C@H]32)c1	37
CC(C)NC(=O)Nc1cccc2c1O[C@H](CN(C)C(=O)Nc1ccc(F)cc1)[C@H](C)CN([C@H](C)CO)C2=O	-12
Cc1noc(C)c1S(=O)(=O)Nc1ccc2c(c1)C(=O)N([C@@H](C)CO)C[C@H](C)[C@H](CN(C)C(=O)Nc1ccc3c(c1)OCO3)O2	0
C[C@@H]1CN([C@H](C)CO)C(=O)c2cc(NC(=O)Cc3cn(C)c4ccccc34)ccc2O[C@H]1CN(C)CC1CCCCC1	12
COCCNC(=O)C[C@@H]1C[C@H]2c3cc(NC(=O)Nc4ccccc4)ccc3O[C@H]2[C@@H](CO)O1	-5
O=C(c1ccncc1)N1C[C@@H]2[C@H](c3ccccc31)[C@@H](CO)N2C(=O)Nc1ccccc1Cl	-16
OC[C@@H]1[C@@H]2c3ccccc3NC[C@@H]2N1CC1CCCCC1	2
COCC(=O)N1C[C@H]2[C@@H](c3ccccc31)[C@@H](CO)N2C(=O)NC(C)C	7
Cn1cnc(S(=O)(=O)N2CC[C@@H]3[C@H](CO)Nc4ccc(-c5cccc(F)c5)cc4[C@@H]32)c1	24
COc1ccccc1NC(=O)N1C[C@H]2[C@@H](c3ccccc31)[C@H](CO)N2C(=O)c1ccccc1	12
C[C@@H]1CN([C@H](C)CO)C(=O)Cc2cc(NC(=O)Cc3ccccc3)ccc2O[C@@H]1CN(C)Cc1ccncc1	-2
C[C@@H]1CN([C@H](C)CO)C(=O)c2cc(NC(=O)Nc3ccc4c(c3)OCO4)ccc2O[C@H]1CN(C)S(=O)(=O)c1ccc(F)cc1	-18
C[C@@H]1CN([C@@H](C)CO)C(=O)c2ccccc2-c2ccccc2CO[C@@H]1CN(C)S(=O)(=O)c1ccc(F)cc1	7
COc1cccc(C(=O)Nc2ccc3c(c2)C(=O)N(C)C[C@H](OC)[C@H](C)CN(C)[C@@H](C)CO3)c1	-7
O=C(C1CC1)N1CCCCN2[C@@H](CO)[C@@H](c3ccc(-c4ccncc4)cc3)[C@@H]2C1	-10
C[C@@H]1CN([C@@H](C)CO)C(=O)c2cc(NS(C)(=O)=O)ccc2O[C@H]1CN(C)C(=O)Nc1ccc2c(c1)OCO2	-4
CO[C@@H]1CN(C)C(=O)c2ccc(NC(=O)C3CCOCC3)cc2OC[C@@H](C)N(CC2CC2)C[C@@H]1C	-14

Three entries drawn at random from the list so far, as already listed:
structure	Yeast UUG start
C[C@H]1CN([C@@H](C)CO)C(=O)Cc2cc(NC(=O)CCC(F)(F)F)ccc2O[C@@H]1CN(C)Cc1ccc(C(F)(F)F)cc1	-10
C[C@@H]1CN([C@H](C)CO)C(=O)c2cc(NC(=O)Cc3cn(C)c4ccccc34)ccc2O[C@H]1CN(C)CC1CCCCC1	12
C[C@@H]1CN([C@@H](C)CO)C(=O)c2ccccc2-c2ccccc2CO[C@@H]1CN(C)S(=O)(=O)c1ccc(F)cc1	7

(listing goes on)
structure	Yeast UUG start
C[C@@H]1CN([C@@H](C)CO)C(=O)c2cccc(NC(=O)C3CCOCC3)c2O[C@H]1CN(C)C(=O)Nc1ccccc1	4
C[C@@H]1CN([C@@H](C)CO)C(=O)c2c(c3ccccc3n2C)-c2ccccc2CO[C@H]1CN(C)C(=O)Nc1cccc(F)c1	13
O=C(C1CCCC1)N1C[C@@H]2[C@H](c3ccccc31)[C@@H](CO)N2C(=O)c1cccnc1	48
C[C@@H]1CN([C@H](C)CO)C(=O)c2cc(NC(=O)Cn3cnnn3)ccc2O[C@@H]1CN(C)Cc1ccc(C(=O)O)cc1	5
C[C@H]1CN([C@@H](C)CO)C(=O)c2cc(NC(=O)Cn3cnnn3)ccc2O[C@H]1CN(C)C(=O)Nc1cccc2ccccc12	-8
CO[C@@H]1CN(C)C(=O)c2ccc(NC(=O)Nc3cccc(Cl)c3)cc2OC[C@H](C)N(C(=O)Nc2c(C)noc2C)C[C@@H]1C	-2
CN(C)C(=O)c1cccc(-c2ccc([C@@H]3[C@@H](CO)N4CCCCN(S(C)(=O)=O)C[C@@H]34)cc2)c1	-3
CNC[C@H]1Oc2c(NS(=O)(=O)c3ccc(Cl)cc3)cccc2C(=O)N([C@H](C)CO)C[C@@H]1C	-6
CCCNC(=O)Nc1ccc2c(c1)OC[C@H](C)N(C(=O)c1ccccc1F)C[C@@H](C)[C@@H](OC)CN(C)C2=O	20
CN1c2ccc(C3=CCCCC3)cc2[C@@H]2[C@@H](CCN2C(=O)c2ccccc2F)[C@@H]1CO	-21
O=C(O)C[C@H]1C[C@H]2c3cc(NC(=O)Nc4ccc(F)cc4)ccc3O[C@H]2[C@H](CO)O1	-13
Cc1ccc(S(=O)(=O)N2C[C@@H]3[C@H](c4ccccc42)[C@@H](CO)N3Cc2cccnc2)cc1	-19
CC(C)NC(=O)N1C[C@@H]2[C@H](c3ccccc31)[C@@H](CO)N2C(=O)c1ccccc1	-2
CN1C(=O)c2cc(NC(=O)Cc3cccs3)ccc2OC[C@H]2O[C@H](CC(=O)NCC3CCCCC3)CC[C@@H]21	4
CCC(=O)N1[C@H](CO)[C@H](c2ccc(C3=CCCC3)cc2)[C@@H]1CNC(=O)CN(C)C	24
CO[C@H]1CN(C)C(=O)c2cc(NC(=O)Nc3ccccc3F)ccc2OC[C@H](C)NC[C@@H]1C	-3
CN1c2ccc(Br)cc2[C@H]2[C@H](CCN2S(=O)(=O)c2ccccc2)[C@H]1CO	-8
COc1ccc(CN(C)C[C@H]2Oc3ccc(NC(=O)NC4CCCCC4)cc3C(=O)N([C@@H](C)CO)C[C@H]2C)cc1	9
Cc1cccc(S(=O)(=O)N2CCCCN3[C@H](C2)[C@@H](c2ccc(C#CC4CC4)cc2)[C@@H]3CO)c1	12
C/C=C/c1ccc([C@H]2[C@@H](CO)N(C(=O)CC)[C@H]2CNC(=O)C2CC2)cc1	11
C[C@@H]1CN([C@@H](C)CO)C(=O)c2cc(NS(=O)(=O)c3ccc(Cl)cc3)ccc2O[C@H]1CN(C)C(=O)Nc1ccc(F)cc1	-1
COCCNC(=O)C[C@H]1CC[C@@H]2[C@@H](COc3ccc(NS(=O)(=O)c4ccc(Cl)cc4)cc3C(=O)N2C)O1	5
CC(=O)N(C)C[C@@H]1OCc2ccccc2-c2c(n(C)c3ccccc23)C(=O)N([C@@H](C)CO)C[C@H]1C	4
C[C@@H]1CN([C@@H](C)CO)C(=O)Cc2cc(NC(=O)Nc3ccc4c(c3)OCO4)ccc2O[C@H]1CN(C)Cc1ccncc1	-3
OC[C@@H]1[C@@H](c2ccccc2)[C@@H](CNCC2CCC2)N1CC1CC1	-8
O=C(C[C@@H]1CC[C@H]2[C@@H](COC[C@@H](O)CN2C(=O)c2cnccn2)O1)NCc1ccc(Cl)cc1	-10
CN1CCCCN2[C@H](CO)[C@@H](c3ccc(C#Cc4ccccc4F)cc3)[C@@H]2C1	5
CCCNC(=O)C[C@H]1CC[C@@H]2[C@@H](COc3ccc(NC(=O)c4cscn4)cc3C(=O)N2C)O1	-2
O=C(Cc1ccncc1)N1CC[C@@H]2[C@H](CO)Nc3ccc(Br)cc3[C@@H]21	-10
C[C@H](O)C#Cc1ccc([C@H]2[C@H](CO)N3CCCCN(CC4CCOCC4)C[C@@H]23)cc1	34
O=C(Nc1ccccc1F)N1CCCCN2[C@@H](CO)[C@@H](c3ccc(C#Cc4ccccc4)cc3)[C@@H]2C1	22
COc1ccc(CN(C)C[C@H]2Oc3c(NS(=O)(=O)c4ccc(C)cc4)cccc3C(=O)N([C@@H](C)CO)C[C@@H]2C)cc1	4
Cc1noc(C)c1S(=O)(=O)Nc1ccc2c(c1)C(=O)N([C@H](C)CO)C[C@@H](C)[C@H](CN(C)Cc1ccc3c(c1)OCO3)O2	-15
N#Cc1cccc(-c2ccc3c(c2)[C@@H]2[C@@H](CCN2C(=O)c2ccc4c(c2)OCO4)[C@@H](CO)N3)c1	-15
N#Cc1ccc(-c2ccc3c(c2)[C@@H]2[C@@H](CCN2C(=O)c2ccc4c(c2)OCO4)[C@@H](CO)N3)cc1	-6
COc1ccc(S(=O)(=O)N(C)C[C@H]2Oc3c(NC(=O)c4cc(C)nn4C)cccc3C(=O)N([C@H](C)CO)C[C@H]2C)cc1	8
CC(C)NC(=O)N(C)C[C@@H]1Oc2c(NC(=O)Nc3ccc(F)cc3)cccc2C(=O)N([C@H](C)CO)C[C@@H]1C	5
CCC(=O)N(CC1CCC1)C[C@H]1[C@H](c2ccccc2)[C@@H](CO)N1C(C)=O	0
C/C=C/c1ccc([C@H]2[C@@H](CO)N3CCCCN(C(=O)C4CCCC4)C[C@@H]23)cc1	9
Cc1ccc(S(=O)(=O)N(C)C[C@@H]2Oc3c(NC(=O)NC(C)C)cccc3C(=O)N([C@H](C)CO)C[C@H]2C)cc1	20
COCC#Cc1ccc([C@@H]2[C@@H](CO)N3CCCCN(C(=O)COC)C[C@@H]23)cc1	15
C/C=C/c1ccc([C@H]2[C@@H](CN(C)C(=O)CC)N(C(=O)NCCC)[C@H]2CO)cc1	3
O=C(Nc1ccc(F)cc1)N1CCCCN2[C@H](CO)[C@H](c3ccc(C#CC4CC4)cc3)[C@H]2C1	-5
CN(C)C(=O)c1ccc(-c2ccc3c(c2)[C@H]2[C@H](CCN2S(=O)(=O)c2cn(C)cn2)[C@H](CO)N3)cc1	-3
Cc1ccc(S(=O)(=O)N(C)C[C@@H]2Oc3ccc(NC(=O)Nc4ccc(F)cc4)cc3C(=O)N([C@@H](C)CO)C[C@H]2C)cc1	-2
CC(C)N(C[C@@H]1N[C@H](CO)[C@@H]1c1ccccc1)C(=O)c1ccccc1	-9
COc1cccc(S(=O)(=O)Nc2ccc3c(c2)[C@@H]2C[C@H](CC(=O)N(C)C)O[C@H](CO)[C@@H]2O3)c1	1
C[C@H]1CN([C@@H](C)CO)C(=O)c2c(c3ccccc3n2C)-c2ccccc2CO[C@H]1CN(C)C(=O)Nc1ccccc1	7
COCC(=O)N1CCCCN2[C@@H](CO)[C@@H](c3ccc(C#Cc4ccc(OC)cc4)cc3)[C@@H]2C1	7
C[C@H](CO)N1C[C@H](C)[C@H](CN(C)CC2CC2)Oc2ccc(NS(=O)(=O)c3ccccc3)cc2CC1=O	-13

Taken from above.
In Yeast UUG start, O=C(Nc1ccccc1F)N1CCCCN2[C@@H](CO)[C@@H](c3ccc(C#Cc4ccccc4)cc3)[C@@H]2C1 is entered as 22
In Yeast UUG start, C[C@H]1CN([C@@H](C)CO)C(=O)c2c(c3ccccc3n2C)-c2ccccc2CO[C@H]1CN(C)C(=O)Nc1ccccc1 is entered as 7
In Yeast UUG start, COc1cccc(S(=O)(=O)Nc2ccc3c(c2)[C@@H]2C[C@H](CC(=O)N(C)C)O[C@H](CO)[C@@H]2O3)c1 is entered as 1
In Yeast UUG start, CCCNC(=O)C[C@H]1CC[C@@H]2[C@@H](COc3ccc(NC(=O)c4cscn4)cc3C(=O)N2C)O1 is entered as -2

3 entries already listed, sorted by the number in Yeast UUG start, high to low:
SMILES,Yeast UUG start
COCC#Cc1ccc([C@@H]2[C@@H](CO)N3CCCCN(C(=O)COC)C[C@@H]23)cc1,15
CCCNC(=O)C[C@H]1CC[C@@H]2[C@@H](COc3ccc(NC(=O)c4cscn4)cc3C(=O)N2C)O1,-2
C[C@H](CO)N1C[C@H](C)[C@H](CN(C)CC2CC2)Oc2ccc(NS(=O)(=O)c3ccccc3)cc2CC1=O,-13

(next part)
structure	Yeast UUG start
COc1ccc(NC(=O)N(C)C[C@@H]2Oc3ccc(NS(=O)(=O)c4cccs4)cc3C(=O)N([C@H](C)CO)C[C@H]2C)cc1	12
CCCNC(=O)NC[C@H]1[C@@H](c2ccc(C3=CCCC3)cc2)[C@H](CO)N1C(C)=O	1
CO[C@@H]1CN(C)C(=O)c2ccc(NC(=O)c3ccc4c(c3)OCO4)cc2OC[C@H](C)NC[C@@H]1C	2
CN(C)CC#Cc1ccc([C@@H]2[C@@H](CO)N3CCCCN(C(=O)Nc4ccc(F)cc4)C[C@H]23)cc1	-5
CN1C(=O)c2cc(NC(=O)c3cnccn3)ccc2OC[C@@H]2O[C@H](CC(=O)NC3CCC3)CC[C@H]21	5
CCC(=O)N1CCCCN2[C@H](CO)[C@@H](c3ccc(C#Cc4ccccc4F)cc3)[C@@H]2C1	19
CN(C)C(=O)c1ccc(-c2ccc([C@@H]3[C@@H](CO)N4CCCCN(CC5CC5)C[C@@H]34)cc2)cc1	17
C[C@@H]1CN([C@@H](C)CO)C(=O)c2cc(NS(=O)(=O)c3cccs3)ccc2O[C@H]1CN(C)C(=O)Nc1ccc2c(c1)OCO2	16
CCC(=O)N1[C@H](CO)[C@@H]2c3ccccc3N(S(=O)(=O)c3ccccc3)C[C@@H]21	2
COc1ccc(S(=O)(=O)N(C)C[C@@H]2Oc3c(NC(=O)c4ccncc4)cccc3C(=O)N([C@@H](C)CO)C[C@H]2C)cc1	-14
O=C(Nc1ccc(Cl)cc1)N1C[C@H]2[C@@H](c3ccccc31)[C@H](CO)N2CC1CCCCC1	-4

An excerpt; rates above refer to the full screens.
